# KCNQ2 block: KCNQ2 potassium channel inhibitors, primary screen, cell-based, CHO-K1, FluxOR thallium flux, B-score (AID 2156); O88943; 20 min; stronger effect = lower value; only compounds with negative scores are shown here; some inactives read as strong as hits; B-score at 10 µM; 1.1% of 310,000 active;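 active = fluorescence ratio B-score at most minus 3 library SDs, with starting brightness B-score within 2 library SDs, cut at about -5.5 in these data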
# Target sequence (O88943 whole entry, looked up): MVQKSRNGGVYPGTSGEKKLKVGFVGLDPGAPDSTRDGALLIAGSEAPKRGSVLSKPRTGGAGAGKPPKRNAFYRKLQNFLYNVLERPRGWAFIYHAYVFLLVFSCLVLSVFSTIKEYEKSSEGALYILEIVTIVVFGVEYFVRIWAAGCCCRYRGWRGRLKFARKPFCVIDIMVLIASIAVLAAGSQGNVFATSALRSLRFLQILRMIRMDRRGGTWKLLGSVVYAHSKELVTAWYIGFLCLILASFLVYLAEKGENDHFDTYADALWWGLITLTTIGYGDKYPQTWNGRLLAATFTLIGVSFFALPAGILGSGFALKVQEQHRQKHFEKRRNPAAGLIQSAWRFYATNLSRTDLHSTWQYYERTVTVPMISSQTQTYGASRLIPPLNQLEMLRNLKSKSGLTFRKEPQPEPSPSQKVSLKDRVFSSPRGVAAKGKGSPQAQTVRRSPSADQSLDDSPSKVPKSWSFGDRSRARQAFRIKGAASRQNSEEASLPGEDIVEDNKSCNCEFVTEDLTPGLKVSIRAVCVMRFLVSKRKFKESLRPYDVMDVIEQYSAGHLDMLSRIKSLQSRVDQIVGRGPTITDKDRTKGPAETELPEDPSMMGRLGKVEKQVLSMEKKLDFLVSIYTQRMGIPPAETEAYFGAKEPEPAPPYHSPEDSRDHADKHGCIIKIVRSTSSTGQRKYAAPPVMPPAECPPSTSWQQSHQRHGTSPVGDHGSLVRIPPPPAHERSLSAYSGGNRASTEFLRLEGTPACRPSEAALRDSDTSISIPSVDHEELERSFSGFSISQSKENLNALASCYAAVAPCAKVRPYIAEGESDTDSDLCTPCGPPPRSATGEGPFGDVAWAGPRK
# KCNQ2 block baseline: also measured in KCNQ2 block; calls as there; B-score; measured here: initial fluorescence intensity artifact check;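 brightness before thallium and not channel activity; 0 = typical well and far values either way flag optical interference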
# Numbers without * were called inactive; i = inactive. A portion of the library; count on the stated rates, not on these rows.
# Start of the data: the first 7 entries as a preview:
# The line under a structure holds: KCNQ2 block, KCNQ2 block baseline
Cc1ccc(N(CC(=O)NCc2ccco2)C(=O)CCC(=O)Nc2nccs2)c(C)c1
  i, -0.15
O=C(CSCc1ccccc1Cl)NN=C1CCCCCC1
  i, 0.55
CCOC(=O)C1CCN(C(=O)c2cccc(NC3=NC4CS(=O)(=O)CC4S3)c2)CC1 (configuration not stated)
  i, 2.14
O=[N+]([O-])c1ccc(NCCCNS(=O)(=O)c2ccc(Cl)cc2)c(Cl)c1
  i, 0.71
O=C(Nc1cccc(S(=O)(=O)N2CCCCCC2)c1)c1ccc2ccccc2n1
  i, -1.65
O=C(COC(=O)c1cccc(S(=O)(=O)N2CCc3ccccc32)c1)Nc1ccc(Cl)cn1
  i, 0.06
COc1ccc(OC)c(S(=O)(=O)N2CCC(C(=O)N3CCCC3)CC2)c1
  i, -0.37

# All compounds of this part, repeating the preview:
# The line under a structure holds: KCNQ2 block, KCNQ2 block baseline
Cc1ccc(N(CC(=O)NCc2ccco2)C(=O)CCC(=O)Nc2nccs2)c(C)c1
  i, -0.15
O=C(CSCc1ccccc1Cl)NN=C1CCCCCC1
  i, 0.55
CCOC(=O)C1CCN(C(=O)c2cccc(NC3=NC4CS(=O)(=O)CC4S3)c2)CC1 (configuration not stated)
  i, 2.14
O=[N+]([O-])c1ccc(NCCCNS(=O)(=O)c2ccc(Cl)cc2)c(Cl)c1
  i, 0.71
O=C(Nc1cccc(S(=O)(=O)N2CCCCCC2)c1)c1ccc2ccccc2n1
  i, -1.65
O=C(COC(=O)c1cccc(S(=O)(=O)N2CCc3ccccc32)c1)Nc1ccc(Cl)cn1
  i, 0.06
COc1ccc(OC)c(S(=O)(=O)N2CCC(C(=O)N3CCCC3)CC2)c1
  i, -0.37
CCN(CC)C(=O)Cn1c(=O)oc2ccccc21
  i, -1.21
O=C(c1ccccc1O)N1CCOCC1
  i, 0.31
CC(OC(=O)c1nsc(Cl)c1Cl)C(=O)NCc1ccco1 (configuration not stated)
  i, 1.97
CCc1nnc(NC(=O)c2ccc(Cl)c(S(=O)(=O)N3CCc4ccccc4C3)c2)s1
  i, -0.02
O=C(COC(=O)C1CCN(c2ccc(C(F)(F)F)cn2)CC1)NCc1ccc(F)cc1
  i, 0.21
CCc1ccc(C(=O)N/N=C/c2ccc(Cl)cc2Cl)nc1
  i, 1.22
O=C(CCc1ccccc1)N1CCN(CCO)CC1
  i, 2.14
CSc1ccccc1C(=O)Nc1cccc([N+](=O)[O-])c1C
  i, -0.09
Cc1cccc(NC(=O)CN2CCN(CC(=O)Nc3cccc(C)c3)CC2)c1
  i, 0.07
COC(=O)C1=C(C)NC(C)=C(C(=O)OC)C1c1ccc(-c2cccc([N+](=O)[O-])c2)o1
  i, -0.98
O=C(NC1CCN(C(=O)N2c3ccccc3Sc3ccccc32)CC1)c1ccccc1F
  i, 0.11
O=S(=O)(c1cccc2nonc12)N1CCN(c2ccc(F)cc2)CC1
  i, 1.6
CC(C)CC1=C/C(=C/c2ccc(-c3ccccc3)o2)C(=O)O1
  i, 0.29
O=C(CS(=O)(=O)c1ccccc1)N1CCc2ccccc21
  i, -0.52
O=C(/C=C/NNC(=O)c1cccc(Br)c1)c1cccc(Br)c1
  i, -0.18
COc1ccc(C(CNC(=O)Nc2ccccc2)N2CCN(C)CC2)cc1 (configuration not stated)
  i, 1.86
COc1ccc(S(=O)(=O)Cc2ccc(C(=O)N3CCN(c4cc(C)ccc4C)CC3)o2)cc1
  i, 0.53
CC(C)(C)NC(=O)C(c1c[nH]c2ccccc12)N(C(=O)Cn1nnc(-c2ccc(Cl)cc2)n1)c1ccccc1F (configuration not stated)
  i, 1.43
Cc1cc2c(NC(=O)CCCC(=O)O)cccc2nn1
  i, 0.79
Cc1ccc(N=Cc2ccc(N(C)C)cc2)cc1
  i, -2.03
N=c1c2c(n(Cc3ccc(Cl)c(Cl)c3)c3c1CCC3)CCCC2
  i, -3.32
CCCNc1nc(-c2ccccc2)c(C(=O)OCC)cc1C#N
  i, -0.13
CC(=O)N1CCN(C(=O)C2(NC(=O)Nc3ccccc3Cl)CCCCC2)CC1
  i, 0.97

# Whole records as entered above. Order of screens: KCNQ2 block | KCNQ2 block baseline
# `O=C(COC(=O)C1CCN(c2ccc(C(F)(F)F)cn2)CC1)NCc1ccc(F)cc1` is listed as i | 0.21
# `O=C(NC1CCN(C(=O)N2c3ccccc3Sc3ccccc32)CC1)c1ccccc1F` is listed as i | 0.11
# `O=S(=O)(c1cccc2nonc12)N1CCN(c2ccc(F)cc2)CC1` is listed as i | 1.6
# `O=C(CS(=O)(=O)c1ccccc1)N1CCc2ccccc21` is listed as i | -0.52

# Further results:
# The line under a structure holds: KCNQ2 block, KCNQ2 block baseline
Cc1ccc(NC(=O)CCNS(=O)(=O)c2ccc3[nH]c(=O)oc3c2)c(C)c1
  i, -0.72
Cc1ccc(/C=C2/NC(=O)N(Cc3ccccc3)C2=O)o1
  i, 0.83
O=S1(=O)CCN2C(=N1)Sc1c2ccc2c1CCCC2
  i, 0.09
Cc1ccc(-c2noc(C3CCCN(C(=O)c4cccc([N+](=O)[O-])c4)C3)n2)o1 (configuration not stated)
  i, 0.97
Cc1cc(C)c(-c2cc(NC(=O)COC(=O)c3ccc(NC(=O)CC#N)cc3)n(-c3ccccc3)n2)cc1C
  i, -1.72
COc1ccc(OC)c(NC(=O)CCNS(=O)(=O)c2ccc3c(c2)oc(=O)n3C)c1
  i, 1.07
Cc1ccn2c(c1)nc(=O)c1cc(S(=O)(=O)N3CCOCC3)ccc12
  i, -0.31
CSc1nc2ccc(S(=O)(=O)Nc3c(C)n(C)n(-c4ccccc4)c3=O)cc2s1
  i, -2.07
N#Cc1ccc(N2CCCNCC2)nc1
  i, -0.14
Cc1cc(C)n2c(SCCC(C)C)nnc2n1
  i, 2.7
Cc1onc(-c2c(Cl)cccc2Cl)c1C(=O)Nc1nc(C(C)(C)C)cs1
  i, -0.28
O=C(CN1CCN(S(=O)(=O)N2CCCCC2)CC1)Nc1ccc(Br)cc1
  i, 0.05
CCCCn1c(N)c(N(CCOC)C(=O)c2ccc(-c3ccc(Cl)cc3)o2)c(=O)[nH]c1=O
  i, 1.62
O=C(Nc1c(C(=O)Nc2cccc(F)c2)oc2ccccc12)c1ccc2c(c1)OCO2
  i, 0.16
CCOc1ccc(NC(=S)Nc2ccc(OC(F)(F)F)cc2)cc1
  i, 0.43
CCOC(=O)C(C)Oc1cc(Cl)c(C=O)cc1OC (configuration not stated)
  i, 1.41
CCCCS(=O)(=O)NC1=NCN(CC)CN1
  i, -0.11
COC(=O)c1cc(S(=O)(=O)NCC2CCN(Cc3cccc(F)c3)CC2)cn1C
  i, 0.81
CCc1ccc(N(C(=O)c2ccco2)C(C(=O)NC2CCCC2)c2cccnc2)cc1 (configuration not stated)
  i, -0.04
NC(N)=N/N=C/c1ccc(OCc2ccc(Cl)cc2Cl)cc1
  i, -0.19
O=C(CCc1ccccc1O)NC1CCCc2ccccc21 (configuration not stated)
  i, -1.41
CC(=O)NC(=S)Nc1cccc2ccc(C)nc12
  i, -0.95
COc1c(C)cccc1C(=O)Nc1cc(Cl)ccc1N1CCOCC1
  i, 1.13
COc1ccc(Oc2coc3c(CN(C)C)c(O)ccc3c2=O)cc1
  i, -0.74
COc1ccc(/C=C2\N=C(c3ccccc3Cl)NC2=O)cc1
  i, -0.14
CCn1nc(C)c(CNC(=O)Nc2ccccc2C(=O)OC)c1C
  i, 0.32
CC1CCc2c(sc3nc(C4CC4)nc(N4CCN(C(=O)c5ccco5)CC4)c23)C1 (configuration not stated)
  i, 0.11
Cc1c(NC(=O)C(C)Oc2ccc(Br)cc2Cl)c(=O)n(-c2ccccc2)n1C (configuration not stated)
  i, -1.48
CCNC(=O)NC(=O)C(C)OC(=O)c1cc(S(=O)(=O)N2CCCCCC2)ccc1OC (configuration not stated)
  i, 0.9
O=C(Cn1c(=O)n(Cc2ccccc2)c(=O)c2ccccc21)NCc1ccco1
  i, 1.42
S=C(NCC1CCCCC1)Nc1ccc(Oc2ccccc2)cc1
  i, -0.24
Cc1c(CCC(=O)NCCCn2ccnc2)c(=O)oc2cc3oc4c(c3cc12)CCCC4
  i, 1.16
CC(=O)N1CCN(S(=O)(=O)c2ccc(C)c([N+](=O)[O-])c2)C1C(C)C (configuration not stated)
  i, 1.26
O=C(NC1C2CCCC1CN(C1CC1)C2)c1ccc(Cl)cc1 (configuration not stated)
  i, -1.7
Cc1ccc2nsnc2c1NC(=O)CCl
  i, 0.03
Cn1cccc1/C=N/N1CCN(Cc2ccc(Cl)cc2)CC1
  i, 1.09
COC(=O)c1cc(S(=O)(=O)Nc2cccc(S(N)(=O)=O)c2)oc1C
  i, 0.02
CCC(C)NS(=O)(=O)c1ccc(S(=O)(=O)N2CC=C(c3ccc(F)cc3)CC2)cc1 (configuration not stated)
  i, 0.01
COc1ccc(N(CC(=O)N2CCN(Cc3ccccc3)CC2)S(=O)(=O)c2ccccc2)cc1
  i, 0.05
O=C1NC(=NCc2ccccc2)S/C1=C/c1ccc(O)cc1
  i, -0.52
O=C1c2ccccc2NC(c2ccc(-c3cccc(Cl)c3)o2)N1O (configuration not stated)
  i, 3.26
CC1Cc2cc(S(=O)(=O)NCc3ccccc3)ccc2N1C(=O)C1CCC1 (configuration not stated)
  i, 0.93
O=C(CSc1nnnn1C1CCCCC1)NNC(=O)c1ccco1
  i, -0.37
COc1ccc(C(C)=O)cc1COC(=O)c1ccc(S(=O)(=O)N2CCOCC2)cc1
  i, 0.21
O=C(CCNS(=O)(=O)c1cccc2nsnc12)NC1CCN(Cc2ccccc2)CC1
  i, 4.23
Cc1[nH]n(-c2ncc(-c3ccccc3)s2)c(=O)c1C(c1ccc(Br)cc1)C(C#N)C#N (configuration not stated)
  i, -0.04
O=C(CCSCCC(=O)Nc1c(F)c(F)c(F)c(F)c1F)Nc1c(F)c(F)c(F)c(F)c1F
  i, 0.24
CCCc1cc(C(=O)Nc2ccc(C)cc2)no1
  i, 2.38
Cc1ccc(Cc2c(C)nc3nc(SCC(=O)NCCCN4CCCCCC4)nn3c2C)cc1
  i, 1.48
O=C(NCCCCCCCCCNC(=O)C(F)(F)F)C(F)(F)F
  i, 1.93
COc1ccc(N(C)C(=O)Nc2ccc3nsnc3c2)cc1
  i, 1.32
CCn1c(SCc2ccc(F)cc2)nc2c(c1=O)SCC2
  i, 0.11
Cc1oc(-c2ccccc2Cl)nc1CS(=O)CC(=O)N1CCN(c2ccccc2)CC1 (configuration not stated)
  i, 1.35
CC(C)S(=O)(=O)C1=NSC2=NC(=O)/C(=C\c3ccc(-c4ccccc4)o3)C(=N)N21
  -5.94*, -0.14*
O=C(Nc1ccc(C(=O)Oc2ccccc2)c(O)c1)c1ccccc1
  i, -1.13
COc1ccc(C2=NS(=O)(=O)N(C)C(C(=O)N3CCN(C)CC3)=C2)cc1
  i, 0.7
Cc1cc(C)c2c(=O)[nH]c(SCC(=O)NCCc3ccccc3)nc2n1
  i, 2.03
CC1Cc2ccccc2N1CC(=O)NC(=O)NC1CCCC1 (configuration not stated)
  i, 0.03
Cn1c(N)c(C(=O)Nc2c(Cl)cccc2Cl)sc1=S
  i, -1.06
O=C(CNC(=O)c1ccc(Cl)cc1)OCC(=O)N1CCCC1
  i, 0.4

# More results follow.
SMILES	KCNQ2 block	KCNQ2 block baseline
CC1(C)CC(=O)C(/C=N/c2ccccn2)=C(O)C1	i	-0.89
O=C(CN1CCN(C(=O)c2ccccc2)CC1)Nc1ccccc1	i	1.44
COC(=O)N/N=C\c1ccc(-c2cc(Cl)c(Cl)cc2Cl)o1	i	0.64
COc1ccc(Cc2nnc(SCc3c(C)noc3C)n2C2CCCCC2)cc1OC	i	1.8
Cc1sc2nc(CN3CCOCC3)nc(NS(=O)(=O)c3ccccc3)c2c1C	i	3.54
Cc1nn(C)cc1-c1n[nH]c(=S)n1-c1ccc(F)cc1	i	-2.33
Cc1ccc(S(=O)(=O)C2(C(=O)O)CCCC2)cc1C	i	0.59
O=C(NCc1cccnc1)C(=O)Nc1nc2ccccc2s1	i	-1.69
COc1ccc2ccccc2c1/C=N/n1cnnc1	i	-0.72
COc1cccc(CN(C)CC(O)COC(c2ccccc2)c2ccccc2C)c1 (configuration not stated)	i	-1.74
Nc1ccccc1C#CC(=O)c1ccccc1	i	-0.01
C[C@@H]1NC(=O)/C(=C\c2ccccc2Cl)NC1=O	i	0.77
COc1cc(NC(=O)c2ccccc2-c2ccccc2)cc(OC)c1	i	-1.12
Cc1ccccc1NC(=O)c1ccc(C)c(S(=O)(=O)NCc2cccnc2)c1	i	-0.07
O=C(Nc1nnc(-c2ccccc2F)s1)Nc1ccccc1F	i	0.66
O=C(NCc1nc2ccccc2[nH]1)C1=C[C@@H](c2ccc(Br)cc2)C[C@@H](OCc2ccc(CO)cc2)O1	i	0.04
CCCCc1c(C)nc2ccc(Br)cc2c1SCCC#N	i	-2.02
O=C(Nc1ccn(Cc2ccccc2)n1)c1cccc(F)c1	i	-0.66
CCN(Cc1ccccc1)S(=O)(=O)c1csc(C(N)=O)c1	i	0.02
CCn1cc(C(=O)NCCc2ccccc2)c(=O)c2cc(S(=O)(=O)N3CCCC3)ccc21	i	-0.02
CC(N1CCOC1=O)S(=O)(=O)c1ccccc1 (configuration not stated)	i	1.53
CC(C)OCCCNC(=O)C1CC(=O)N(CCc2ccccc2)C1 (configuration not stated)	i	4.17
CN(Cc1ccccc1)/C(=N/O)c1cccc(Cl)c1	i	1.48
O=C(CSc1ccc(Cl)cc1)Nc1cccc(-c2nc3ncccc3o2)c1	i	-0.21
COc1ccc(/C=N/NC(=O)c2ccc(N(C)S(=O)(=O)c3ccccc3)cc2)c(OC)c1	i	1.7
COC(=O)CC1C(=O)NCCN1C(=O)c1ccc(S(=O)(=O)N2CCOCC2)cc1 (configuration not stated)	i	-2.6
Cc1cccc(NC(=O)CSc2nnc(CN3CCOCC3)n2C)c1C	i	-2.05
CC(=O)Nc1ccc(C(=O)Nc2nc(-c3ccccn3)cs2)cc1	i	2.5
CC(C)[C@H](NC(=O)N1CCn2c1nc1ccccc12)C(=O)N[C@@H](C(=O)O)c1ccccc1	i	0.34

# Compound activity from PubChem.
